Screening data deposited in PubChem by National Center for Advancing Translational Sciences (NCATS).
VDR inhibitor – vitamin D3 receptor (human) inhibition. P11473. VDR-SRC2-3 peptide fluorescence polarization, 2 h. Potency, µM, without a hit: max response, negative = inhibition, usual class: inhibitors. 400,000 compounds, 0.93% hits; active = well fitted inhibition curve with a large enough effect; inconclusive = small, poorly fitted or top-dose-only effect, or another doubt; inactive = no such curve, though single readings can be large or run the other way; note: series mostly up to about 120 µM
Target sequence (P11473 whole entry, looked up): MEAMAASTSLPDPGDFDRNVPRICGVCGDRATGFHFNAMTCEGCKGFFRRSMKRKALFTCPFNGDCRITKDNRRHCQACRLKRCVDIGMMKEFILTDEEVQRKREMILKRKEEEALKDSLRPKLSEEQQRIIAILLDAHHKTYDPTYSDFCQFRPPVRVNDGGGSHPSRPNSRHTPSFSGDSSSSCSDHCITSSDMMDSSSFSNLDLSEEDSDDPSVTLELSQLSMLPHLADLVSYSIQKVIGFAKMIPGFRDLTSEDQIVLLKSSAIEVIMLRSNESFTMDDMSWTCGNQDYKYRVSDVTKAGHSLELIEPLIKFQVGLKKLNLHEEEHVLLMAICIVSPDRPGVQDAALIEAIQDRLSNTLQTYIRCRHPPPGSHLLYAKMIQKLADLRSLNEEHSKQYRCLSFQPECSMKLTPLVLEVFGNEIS
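Reagent solutions, kept cold and dark, are dispensed first; compounds are then pinned in at 23 nl, plates briefly spun, and incubated 2 h at ambient temperature. Inhibition of VDR–SRC2-3 peptide binding is read by fluorescence polarization.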
Starred values were filed as active, the others as inactive; ? = inconclusive; & = joins results of further samples; [ ] = dose if it differs, or a comment. % is set by controls: 0 for no effect and ±100 for the full control effect; potency is the fitted concentration of half-maximal effect.

SMILES	VDR inhibitor
O=C(NCCCN1CCCC1=O)c1cccc(S(=O)(=O)NCc2ccccc2)c1	-5%
CCOC(=O)N1CCN(C(=O)CSc2nnc(-c3c[nH]c4ccccc34)n2CCOC)CC1	-4%
CCc1cccc(C)c1NC(=O)CSc1nc(C)c(C)o1	-2%
COc1ccc(N2CCN(C(CNS(=O)(=O)c3c(C)cc(C)cc3C)c3ccco3)CC2)cc1 (stereo not drawn)	5%
Cn1c(CCN2CCCCC2)nc2cc(NS(=O)(=O)c3ccccc3)ccc21	8%
O=[N+]([O-])c1ccc(-[n+]2ccc3ccccc3c2)c([N+](=O)[O-])c1	79µM*
c1ccc(-c2cn(C[C@H]3CC[C@@H]([C@@H]4CC[C@H](Cn5cc(-c6ccccc6)nn5)O4)O3)nn2)cc1	-8%
CCOC(=O)c1c(C)[nH]c(C)c1S(=O)(=O)NCc1ccccc1OCC	2%
COc1cc(OC)cc(-c2nnc(SCC(=O)N(Cc3ccccc3)C(C)(C)C)o2)c1	3%
COC(=O)c1ccc(C(=O)OC)c(NC(=O)CN2CCCCC2)c1	-9%
Cc1cc(Nc2ccc(C(=O)O)c(O)c2)n2ncnc2n1	-8%
Cc1ccccc1OCC(O)CNCCOc1ccc(C(N)=O)cc1 (stereo not drawn)	12%
Cn1cc(-c2cc3n(n2)CCC(=O)N3CCCC(=O)Nc2ccccc2Cl)c2ccccc21	10%
Cc1ccc(NC(=O)CN2CCc3ccccc3C2)cc1S(=O)(=O)N(C)C	-19%
O=C(CSc1nnc(CNC(=O)c2c(F)cccc2Cl)o1)c1ccccc1	1%
CC(C)(C)c1nnc(NC(=O)C2c3ccccc3Oc3ccccc32)s1	35µM*
O=C(CS(=O)CC(=O)NC12CC3CC(CC(C3)C1)C2)Nc1ccc(F)cc1 (stereo not drawn)	-9%
NC(=O)c1ccsc1NC(=O)c1nc(-c2ccccc2)n(-c2ccccc2)n1	43%[activator]
O=C(CSc1nc2nn(-c3ccccc3)c(=O)c-2c2n1CCCCC2)Nc1ccc(F)cc1F	18%
Cn1c(NNC(=O)c2ccc(C(C)(C)C)cc2)cc(=O)n(C)c1=O	-2%

Of the compounds above, two have an aryl methoxy group.
SMILES	VDR inhibitor
COc1ccc(N2CCN(C(CNS(=O)(=O)c3c(C)cc(C)cc3C)c3ccco3)CC2)cc1 (stereo not drawn)	5%
COc1cc(OC)cc(-c2nnc(SCC(=O)N(Cc3ccccc3)C(C)(C)C)o2)c1	3%

Next compounds
SMILES	VDR inhibitor
CCc1nnc(NC(=O)CCc2ccccc2OC)s1	8%
COC(=O)c1c(NC(=O)C(=O)NCCCN2CCOCC2)sc2c1CC(C)(C)OC2	3%
Cc1cc(C)c(S(=O)(=O)N(CC(=O)O)CC(=O)O)c(C)c1	-3%
CN(C)S(=O)(=O)NCCNC(=O)c1cc(OCC(F)(F)F)ccc1OCC(F)(F)F	16%
NC(=O)CSc1nnc(-c2ccco2)n1-c1ccccc1	-7%
Cc1csc(=O)n1CC(=O)OCC(=O)Nc1ccc(F)c(F)c1	-12%
CCOC(=O)CSc1nc2ccccc2n1CC(=O)N1CCN(c2ccccc2)CC1	-4%
N#Cc1ccsc1NC(=O)CSc1nncs1	6%
O=S(=O)(Nc1ccc(Cc2ccncc2)cc1)c1ccc(Br)s1	1%
Cc1ccc2cccc(Oc3ncnc4sc(C)c(C)c34)c2n1	-4%
COc1cccc(NC(=O)C(C)OC(=O)CCCNC(=O)c2ccc(Cl)cc2)c1 (stereo not drawn)	-4%
O=C(COC(=O)/C=C/c1ccco1)NCCN1C(=O)CSC1=O	-9%
COc1ccc(CNC(=O)C(=O)NCc2cccnc2)cc1	19%
Cc1ccc(NC(=O)CCNC(=O)c2ccccc2)cc1F	10%
CN(Cc1nccs1)C(=O)C1CCC(=O)N(CCc2ccc(Cl)cc2)C1 (stereo not drawn)	4%
O=C(CCn1c(=O)oc2ccccc21)NCCN1CCc2ccccc2C1	1%
Cc1cc(C(=O)CSc2nnc(CCC(N)=O)n2C)c(C)n1C1CC1	-9%
NC(=O)CC(NC(=O)Cc1ccc(Br)cc1)c1ccc(N2CCN(c3ccccn3)CC2)c([N+](=O)[O-])c1 (stereo not drawn)	-23%
C/C(=N\NC(=O)c1ccc(N(C)C)cc1)c1ccc(C)c(C)c1	-20%
C[C@H](NC(=O)C1CCN(S(=O)(=O)c2ccccc2)CC1)C(=O)NCc1ccc(F)cc1	-5%

Reformatted: three of the compounds above
O=C(CCn1c(=O)oc2ccccc21)NCCN1CCc2ccccc2C1
  VDR inhibitor = 1%
Cc1cc(C(=O)CSc2nnc(CCC(N)=O)n2C)c(C)n1C1CC1
  VDR inhibitor = -9%
NC(=O)CC(NC(=O)Cc1ccc(Br)cc1)c1ccc(N2CCN(c3ccccn3)CC2)c([N+](=O)[O-])c1 (stereo not drawn)
  VDR inhibitor = -23%

Following part:
SMILES	VDR inhibitor
COc1ccc(OC)c(NC(=O)Cn2ccc3ccccc3c2=O)c1	-10%
COC(=O)c1cccc(Oc2cccc(C(F)(F)F)c2)n1	-12%
C/C(=N\NC(=O)COc1ccc(C(C)(C)C)cc1)c1ccc(N2CCOCC2)cc1	17%
Cn1c(SCC(=O)Nc2ccc3cn[nH]c3c2)nnc1-c1cnccn1	11%
O=C(Nc1cccc(S(=O)(=O)Nc2ccccc2Cl)c1)c1ccc(N2CCCC2)c([N+](=O)[O-])c1	-11%
COc1cc(C(=O)N[C@@H](C)C(=O)NCc2ccco2)cc(OC)c1OC	13%
O=C(C1CN(C(=O)c2cc3cc(Cl)ccc3o2)c2ccccc2O1)N1CCCCC1 (stereo not drawn)	-2%
Cc1cc(C)c2c(=O)cc(C(=O)Nc3ccccc3C(F)(F)F)oc2c1	-2%
CC(Oc1ccc2c(-c3ccccc3)cc(=O)oc2c1)C(=O)N1CCC[C@@H]1C(N)=O (stereo partly drawn)	-16%
O=C(C1CCCCN1S(=O)(=O)c1ccccc1)N1CCN(C(c2ccccc2)c2ccccc2)CC1 (stereo not drawn)	1%
O=C(COC(=O)CNS(=O)(=O)c1ccc2ccccc2c1)Nc1ccc2c(c1)OCO2	-6%
O=C(NCCCN1CCOCC1)c1ccc(S(=O)(=O)Nc2ccccc2F)cc1	-15%
CN(c1ccccc1)S(=O)(=O)c1cccc(NC(=O)c2nn(C)c(=O)c3ccccc23)c1	5%
COc1cc(C(=S)N2CCOCC2)ccc1OS(=O)(=O)c1ccc(NC(C)=O)cc1	-10%
O=C(O)c1cccc(N=NN2CCCCCC2)c1	4%
COc1ccc(/C=C2/C(=O)OCc3cc(OC)c(OC)cc32)c(OC)c1	-21%
Cc1ccc(S(=O)(=O)NCC(=O)OCC(=O)N2CCN(C(=O)c3ccco3)CC2)cc1C	-12%
S=C(NCc1ccc(Cl)cc1Cl)NC1CCCCC1	-10%
CC(NC(=S)Nc1ccccc1)C1COc2ccccc2O1 (stereo not drawn)	11%
Cc1cccc(-c2noc(CCCC(=O)Nc3cccnc3)n2)c1	-14%

Next part
SMILES	VDR inhibitor
C=C(C)CSC1=C(C#N)C(c2ccccc2)CC(=O)N1 (stereo not drawn)	6%
COC(=O)c1cc(NC(=O)CC2C(=O)NCCN2C(=O)c2ccc(F)cc2)cc(C(=O)OC)c1 (stereo not drawn)	7%
C/C(N)=C(/C#N)C(=O)CSc1ncnc2ccccc12	-1%
NC(N)=NCCC[C@@H](N)C(=O)NCC(=O)N[C@@H](CC(=O)O)C(=O)N[C@@H](Cc1c[nH]c2ccccc12)C(=O)O	4%
COc1ccc(C(=O)c2coc3ccc(OC(C)=O)cc23)cc1	-8%
COc1ccc(Cn2c(=O)n(Cc3ccco3)c(=O)c3oc4ccccc4c32)cc1	6%
Cc1ccc(S(=O)(=O)N2CCC(=O)N(C(CO)Cc3ccccc3)CC2)cc1 (stereo not drawn)	-14%
O=C(/C=C/c1ccccc1[N+](=O)[O-])NCc1ccncc1	-3%
COc1ccc(OC)c(S(=O)(=O)N2CCNCC2)c1	-11%
CC1CCCCC1NC(=O)c1ccc(N2CCCC2=O)cc1 (stereo not drawn)	13%
COc1ccc(CC(=O)NC2CCCCCC2)c(OC)c1	2%
CCN(c1ccccc1)S(=O)(=O)c1ccc(NC(=O)c2cc(=O)c3ccc(C)c(C)c3o2)cc1	-4%
Cc1ccc(NC(=O)c2cc3nc(-c4ccc5c(c4)OCO5)cc(C(F)(F)F)n3n2)cc1Cl	-7%
CC1CCN(CC(=O)Nc2ccc(S(=O)(=O)NC3CC3)cc2)CC1	2%
CN(C)S(=O)(=O)c1cccc(NC(=O)COC(=O)C2(c3ccccc3F)CCCC2)c1	-5%
CCN(CC)CCNC(Cc1ccccc1)c1cccc(OC)c1 (stereo not drawn)	-7%
O=C(O)c1ccnc(SCC(=O)c2ccccc2)c1	-12%
COC(=O)C(C)Sc1nc2c(cnn2-c2ccc(F)cc2)c(=O)[nH]1 (stereo not drawn)	2%&-2%
COc1ccc(C(=O)N2CCOCC2)cc1S(=O)(=O)N1CCCc2ccccc21	8%
CCn1c(SCC(=O)NCc2ccccc2)nc2c(c1=O)SC(C)C2 (stereo not drawn)	-3%

Carrying on.
SMILES	VDR inhibitor
CCc1ccccc1Nc1nn2c(=O)c3ccc(C(=O)NCCC4=CCCCC4)cc3nc2s1	16%
CCN(CC)C(=O)c1sc(NC(=O)c2ccc3c(c2)OCO3)c(C#N)c1C	24%
CN(C)S(=O)(=O)N1CCC(Oc2cccc(C(=O)N3CCCCCCC3)c2)CC1	1%
O=C1C(=O)N(C2CCN(C(=O)c3cccc(Cl)c3)CC2)CCN1Cc1ccc(F)cc1	9%
CCOc1ccc(NC(=O)COc2ccc(C(=O)NCc3cccc(OC)c3)cc2OC)cc1	-11%
CN(C)S(=O)(=O)N1CCC(CCCC2CCN(S(=O)(=O)N(C)C)CC2)CC1	-4%
CCOC(=O)CSc1nc2ccccc2c(=O)n1CC	-3%
CCN1C(c2ccccc2)=C(c2ccccc2)S/C1=C\C=C1/SC(=S)N(C)C1=O	-24%
Cc1ccc(C2=CC(=O)C[C@H](c3ccc4c(c3)OCO4)C2)cc1	-12%
COc1ccc(CCNC(=O)CSc2cn(CCNC(=O)c3c(F)cccc3F)c3ccccc23)cc1OC	5%
CCOc1ccc(CCNC(=O)Cn2cccc2C(=O)c2ccccc2)cc1OCC	-4%
O=C(NCCc1nc2ccccc2[nH]1)Nc1ccccc1	6%
CC(Sc1nc2ccccc2[nH]1)C(=O)Nc1ccc2c(c1)OCCO2 (stereo not drawn)	4%
CCc1cccc(NC(=O)C2CCN(c3ncnc4sc(C)c(C)c34)CC2)c1	?
CCN(CCn1cccn1)C(=O)CCc1nnc(C2CCCCC2)o1	-15%
COc1ccc(/C(O)=C2/C(=O)C(=O)N(CCCN3CCOCC3)C2c2ccc(C(C)C)cc2)cc1 (stereo not drawn)	-8%
CCOc1ccc(NC(=O)CN2C(=O)CSC(C)C2=O)cc1 (stereo not drawn)	9%
CN(C)S(=O)(=O)N(CC(=O)N1CCN(Cc2ccccc2)CC1)c1ccccc1	-14%
Cc1ccc(S(=O)(=O)c2c(N)n(CCC(C)C)c3nc4ccccc4nc23)cc1	?
O=C(O)C1OC(C(=O)O)C2C1C(F)(F)C2(F)F (stereo not drawn)	10%

New compounds follow
SMILES	VDR inhibitor
COCCCN1C(=O)c2ccc(C(=O)OCC(=O)N(C)c3ccccc3)cc2C1=O	-6%
Cc1cc(C)c(NC(=O)c2cc(S(=O)(=O)N3CCC4(CC3)OCCO4)ccc2F)c(C)c1	6%
Cc1ccc(C(C)C)c(OC/C(O)=C(\C#N)c2nc3ccccc3[nH]2)c1	14%
C/C(=N\NC(=O)c1ccc(NS(=O)(=O)c2cccs2)cc1)c1ccccn1	27%
CCN(C(=O)Cn1cc(C(C)=O)c2ccccc21)c1ccccc1	-12%
COc1cccc(CNC[C@H]2O[C@@H](n3cnc(C(N)=O)n3)[C@H](O)[C@@H]2O)c1OCc1ccc(F)cc1Cl	-23%
O=c1/c(=C/c2ccco2)sc2n1CN(c1ccccc1)CN=2	-12%
COc1ccc(/C=N/NC(=O)c2cccnc2)c2ccccc12	-13%
C#CCOCCOCCOCCNc1nc(N2CCOCC2)nc(N2CCN(C(=O)[C@H](CCCCN)n3cc(CCCC)nn3)CC2)n1	-16%
C=CCn1c(=O)c2c(nc(-c3ccccc3)n2C)n(C)c1=O	2%
Cc1cc(-c2ccccc2)nc(SCC(=O)c2cccc([N+](=O)[O-])c2)n1	4%
O=c1c(NCc2cccs2)nccn1-c1ccccc1	-5%
CC#CCN(CC#CC)S(=O)(=O)c1ccc(S(=O)(=O)N2CCOCC2)cc1	-10%
COCCSc1nnc(NC(=O)c2cc(OC)c(OC)cc2[N+](=O)[O-])s1	-13%
O=C(COC(=O)CCc1nc2ccccc2s1)Nc1nc(-c2ccccc2)cs1	20%
Cc1cc(-c2ccccc2)nc(N2CCC(C(=O)NC34CC5CC(CC(C5)C3)C4)CC2)n1	2%
CCCc1nnc(SCC(=O)O)n1/N=C/c1ccc2c(c1)OCO2	2%
CCOc1ccc(NC(=S)N(CCCN2CCCC2)Cc2cccn2Cc2ccc(Cl)cc2)cc1	-6%
Cc1ccc(S(=O)(=O)N2CCC(C(=O)NC3CC(C)(C)NC(C)(C)C3)CC2)cc1	-14%
Fc1ccc2[nH]c3c(Cl)ncnc3c2c1	0%
Cn1c(COc2ccc(Cl)cc2)nnc1SCC(=O)NC1CCCC1	-5%
COC(=O)c1c(C)oc(C)c1S(=O)(=O)NCc1ccc(OC)cc1	?
Cc1cc(SCC(=O)Nc2ccccc2)nc(C)n1	11%

Only part of the results is shown. The share of hits here may be higher or lower than overall.
